# From PubChem
# D2 agonist = Beta-Arrestin HTS for Positive Allosteric Modulators of the Human D2 Dopamine Receptor: Agonists; D(2) dopamine receptor (Homo sapiens), P14416; DiscoveRx PathHunter D2 beta-arrestin, luminescence, 90 min; 100% = 57 uM dopamine signal; activation, % (concentration not given with the values); 360,000 compounds, 0.084% hits; AID 624465, 2012; in the data active = activation above about 40%; inconclusive = about 15% to 40%; inactive = below about 15%; also: the text of the record calls up to 30% inactive
# Target sequence (P14416 whole entry, looked up): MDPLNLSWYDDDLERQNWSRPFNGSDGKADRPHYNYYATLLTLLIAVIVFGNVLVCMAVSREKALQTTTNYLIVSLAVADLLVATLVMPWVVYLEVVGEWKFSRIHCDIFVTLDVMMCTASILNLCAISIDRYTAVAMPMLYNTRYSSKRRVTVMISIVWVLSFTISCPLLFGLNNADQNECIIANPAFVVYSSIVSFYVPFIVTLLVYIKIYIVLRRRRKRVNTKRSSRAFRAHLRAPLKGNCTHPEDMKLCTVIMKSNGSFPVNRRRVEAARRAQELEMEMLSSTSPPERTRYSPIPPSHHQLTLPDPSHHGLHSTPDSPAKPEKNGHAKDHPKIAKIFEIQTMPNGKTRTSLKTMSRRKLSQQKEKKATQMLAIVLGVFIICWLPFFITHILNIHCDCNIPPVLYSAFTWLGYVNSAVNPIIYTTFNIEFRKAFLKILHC
#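 Agonist mode: compounds alone added to overnight-plated D2 PathHunter cells for 90 min at 37 C, with 57 uM final dopamine (EC100) defining full response. Beta-arrestin recruitment detected by chemiluminescent reagent, read after 1 h at ambient temperature.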
# TRPV1 PAM = HTS Assay for Compounds that Act as Potentiators of the Vanilloid Receptor 1; Transient receptor potential cation channel subfamily V member 1 (Homo sapiens), Q8NER1; TRPV1-expressing cells, Fluo-8 calcium influx, capsaicin EC20 potentiation; host cell line not named in the record; control for the full effect not named in the record; potentiation, % at 8.33 µM; 320,000 compounds, 0.02% hits; AID 540277, 2011; active means potentiation above 80%; inconclusive means 30% to 80%; inactive means below 30%; also: 0% is about no effect
#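 Fluo-8 calcium influx in TRPV1-expressing cells, kinetic read (ex 480/em 520 nm). Compound added and read 3 min for agonist activity, followed by capsaicin at EC20 final and 2 min further read for enhancement.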
# CtBP-E1A blk = qHTS Assay for Inhibitors of the CtBP/E1A Interaction | CtBP / adenovirus E1A interaction (AlphaScreen) | activity change, % (test concentration not listed) | 340,000 compounds, 0.49% hits | AID 651724, 2012 | AlphaScreen GST-E1A/His-CtBP binding, 1536-well; active compounds read low; control for the full effect not named in the record; in the data active means activity change below about -65%; inconclusive means about -30% to -65%; inactive means above about -30%; also: % is scaled to controls: 0 for no effect and ±100 for the full control effect
#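 Steps: dispense buffer (Tris pH 8.0, NaCl 300 mM, TCEP 1 mM, BSA, Tween 20); add 5X protein mix (GST-E1A, His-CtBP, 125 nM each); pin 23 nL compound; 2 h at 37 °C, dark; add 5X beads (50 ug/mL); 1 h; read.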
# PINK1 modulator = A Quantitative High throughput Screen to Identify Chemical Modulators of PINK1 Expression; PINK1 immunofluorescence, high-content cytometry, 24 h; Potency, µM (highest dose often 76.6 µM), for the others: at the top dose activation (PINK1 increase), hits mostly activators; 410,000 compounds, 0.2% hits; AID 624263, 2012; active = well fitted activation curve with a large enough effect; inconclusive = small, poorly fitted or top-dose-only effect; inactive = flat fitted curve, though single readings scatter; cell line not stated here;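 also: potency is read from the fitted curve at half-maximal effect; % of control where 0% means no effect; nearly all actives have a fitted effect of over 65% in size; a mitochondrial uncoupler was the plate control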
#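 Cells are seeded, rested 12 hours, then given compound at five concentrations or DMSO for 24 hours. After fixation, blocking and antibody staining, PINK1 amount and mitochondrial localization are scored; CCCP serves as control.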
# D2 PAM = Beta-Arrestin HTS for Positive Allosteric Modulators of the Human D2 Dopamine Receptor: Potentiators; D(2) dopamine receptor (Homo sapiens), P14416; potentiation, % (no concentration beside the values); 360,000 compounds, 0.23% hits; DiscoveRx D2 beta-arrestin cells, luminescence, 90 min; 100% = 57 uM dopamine signal; active = potentiation of 50% or more; inconclusive = 30% to 50%; inactive = 30% or less;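 also: compound concentration not given in the record; tested on top of an EC20 dose of dopamine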
#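 PathHunter D2 cells, attached overnight at 37 deg C, received compound in DMSO plus dopamine at EC20 (50 nM final) for 90 min at 37 deg C. Beta-arrestin recruitment was read as luminescence after 1 h with detection reagent at ambient temperature.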
# Six1-Eya2 blk = qHTS Assay for Inhibitors of the Six1/Eya2 Interaction; AID 651725, 2012; AlphaScreen GST-Six1/His-Eya2 binding, biochemical; active compounds read low; control for the full effect not named in the record; activity change, % (concentration not given with the values); Homeobox protein SIX1 (Homo sapiens) + Protein phosphatase EYA2 (Homo sapiens), …; 360,000 compounds, 0.56% hits; in the data active = activity change below about -65%; inconclusive = about -30% to -65%; inactive = above about -30%; also: % is scaled to controls: 0 for no effect and ±100 for the full control effect
#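 Six1/Eya2 binding was read as AlphaScreen signal after compounds were pinned into GST-Six1 plus His-tagged Eya2 (5X stock 250/500 nM) in pH 8.0 Tris/NaCl/TCEP buffer, beads added, then incubated 1 h, 37 C, dark.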
# Sfp PPTase inh = qHTS Assay for Inhibitors of Bacillus subtilis Sfp phosphopantetheinyl transferase (PPTase); 4'-phosphopantetheinyl transferase ffp (Bacillus subtilis), Q9F4F7; Biochemical Sfp PPTase activity, qHTS; Potency, µM, for the others: max response, negative = inhibition, actives largely listed as inhibitors; 310,000 compounds, 3.5% hits; active = well fitted inhibition curve with a large enough effect; inconclusive = small, poorly fitted or top-dose-only effect, or another doubt; inactive = no such curve, though single readings can be large or run the other way;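 also: the enzyme is Sfp with the accession as filed and its product quenches rhodamine fluorescence; potency is read from the fitted curve at half-maximal effect; 0% = enzyme reaction without inhibitor and -100% = no enzyme wells; top concentration of the series not given in the record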
#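 Buffer: 50 mM Hepes-Na pH 7.6, 10 mM MgCl2, 0.01% Nonidet P-40, 0.01% BSA. Enzyme 15 nM, pre-exposed to compound 15 min; substrates then added and fluorescence change tracked over 30 min.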
# An asterisk follows results filed as active; ? = inconclusive; · = not tested or not shown; & = joins results of further samples; [ ] = dose if it differs, or a comment. The list is partial (hit frequency here may not be typical).
SMILES,D2 agonist,TRPV1 PAM,CtBP-E1A blk,PINK1 modulator,D2 PAM,Six1-Eya2 blk,Sfp PPTase inh
C[C@H]1C/C=C/[C@H]2[C@H](O)[C@H](C)[C@@](C)(O)[C@H]3[C@H](Cc4ccccc4)NC(=O)[C@]32[C@H](O)/C=C/[C@](C)(O)C1,-1.9,·,11,3.8%,-25,6,·
CC12CC(=O)C3C(CCC4CC(=O)C=CC43C)C1CCC2=O (configuration not stated),1.4,·,7,6.3%,-4,1,·
O=C(CN1C(=O)CCSc2ccccc21)N1CCC2(CC1)OCCO2,-1.0,1,4,-1.5%[38.3 µM],-8,5,18%
O=C(Nc1ccccc1OC(=O)N1CCCCC1)N1CCCCC1,1.3,8,5,-3.7%[38.3 µM],-11,-1,-2%
C[C@]12CCC3C(CC[C@H]4C[C@H](O)CC[C@]34C)C1[C@@H](O)[C@@H](O)[C@@H]2O (some centres not stated),-3.1,·,2,-0.2%,-1,-3,·
C=CCn1c(O)c(/C(C)=N/NC(=S)Nc2ccccc2)c(=O)[nH]c1=O,2.6,1,-2,1.4%,0,4,35µM*
Cc1ccc2c(c1)C1CN(C)CCC1N2C(=O)c1cccs1 (configuration not stated),-5.0,-2,0,-0.2%,-10,4,-3%
COc1ccccc1N=Nc1c(O)[nH]c(=S)[nH]c1=O,-7.8,-6,?,-0.9%,-16,?,-20%
CN1C(=O)/C(=C\c2ccc(N3CCCCCC3)cc2)C(=O)NC1=S,-4.4,1,·,1.5%,-21,2,?
C[C@]12C=CC(=O)C=C1C=C[C@@H]1C2CC[C@]2(C)C(=O)CCC12 (some centres not stated),2.6,-7,·,-0.2%,-2,8,12%
CC12CC(O)C3C(CCC4=CC(=O)CCC43C)C1CCC2=O (configuration not stated),0.2,·,8,0.4%,-5,10,·
C=CCn1c(O)c(C=NCCCOc2ccc(CC)cc2)c(=O)[nH]c1=S,-1.3,19,-3,0.5%,-8,1,-29%
Cc1ccc(C2CN(C)CC2C(=O)c2ccc(F)cc2)cc1 (configuration not stated),-8.8,-17,-19,0.5%,-28,-16,15%
COC(=O)C1=C(c2cccc3c2S(=O)(=O)c2ccccc2-3)C[C@@H]2CC[C@H]1N2C(=O)N1CCOCC1,0.0,2,0,0.0%,6,0,·
O=C(c1cccc([N+](=O)[O-])c1)C12CN3CN(CN(C3)C1)C2,-0.9,3,2,0.8%,0,18,12%

# Sorted by length of the SMILES (rising): some entries from above.
SMILES,D2 agonist,TRPV1 PAM,CtBP-E1A blk,PINK1 modulator,D2 PAM,Six1-Eya2 blk,Sfp PPTase inh
CC12CC(O)C3C(CCC4=CC(=O)CCC43C)C1CCC2=O (configuration not stated),0.2,·,8,0.4%,-5,10,·
CN1C(=O)/C(=C\c2ccc(N3CCCCCC3)cc2)C(=O)NC1=S,-4.4,1,·,1.5%,-21,2,?
C[C@]12CCC3C(CC[C@H]4C[C@H](O)CC[C@]34C)C1[C@@H](O)[C@@H](O)[C@@H]2O (some centres not stated),-3.1,·,2,-0.2%,-1,-3,·

# New compounds follow
SMILES,D2 agonist,TRPV1 PAM,CtBP-E1A blk,PINK1 modulator,D2 PAM,Six1-Eya2 blk,Sfp PPTase inh
O=[N+]([O-])c1ccc(N2CCCCCC2)c2ncccc12,-3.3,13,?,-2.1%,-2,?,?
CC12CN3C(O)C(C)(C1)CC(C)(C2)C3O (configuration not stated),-2.3,-6,-26,4.0%[38.3 µM],-3,2,11%
CCc1nn(CC(=O)N2CCC3(CC2)OCCO3)c(=O)c2cc3ccccc3n12,2.8,-3,-6,-1.2%,-2,-3,15%
Cc1nc2cc(C(=O)N3CCC4(CC3)OCCO4)ccc2n1-c1ccc(Br)cc1,-3.0,-20,-9,5.9%,6,3,-7%
Cc1cc(Cl)nc(N)n1,-4.5,-5,10,-2.2%,-4,14,7%
FC(F)=C(F)CCSc1ncn[nH]1,3.2,3,6,-0.7%,2,3,-1%
Cc1c(C(=O)c2ccccc2)c2ccccc2n1C,-9.6,-16,·,0.5%,-6,0,18%
C[C@]12CCC3C(C[C@@H](O)[C@H]4C[C@@H](O)CC[C@]34C)C1CC[C@@H]2O (some centres not stated),1.0,·,-1,0.3%,1,3,·
Cc1cc(/C=C2/C(=O)NC(=O)N(c3ccccc3)C2=O)c(C)n1-c1ccc(F)cc1,-2.0,·,13,11%,10,2,·
CCOc1ccc2nc(N=Nc3c(O)[nH]c(=S)[nH]c3=O)sc2c1,-7.5,3,5,7.2%,4,0,56µM*
Fc1cccc(F)c1CN1CCN(Cc2c(F)cccc2F)CC1,-2.1,-3,-6,2.3%,-12,-4,16%
COc1ccccc1N1CCN(Cc2c(F)cccc2Cl)CC1,-1.0,-15,3,·,-42,-1,-2%
CCN(CC)c1ccc(/C=C2\C(=O)NC(=O)N(CC3CCCO3)C2=O)cc1 (configuration not stated),2.1,-12,·,-0.9%,-1,1,-29%
CN(C)C1(CNC(=O)c2ccc(Cl)c(S(=O)(=O)NCc3ccco3)c2)CCCCC1,-3.6,-17,3,-1.0%,-24,-1,17%
COC1/C=C/C=C(\C)Cc2cc(O)c(Cl)c(c2)N(C)C(=O)CC(OC(=O)C(C)C)C2(C)OC2C(C)C2CC1(O)NC(=O)O2 (configuration not stated),-3.5,·,6,-0.9%,-10,9,·
Cc1ccc(Cn2ccccc2=N)cc1,1.0,8,8,-0.6%,-5,1,-21%
O=C(C1CC(c2ccc(F)cc2)=NO1)N1CCC2(CC1)OCCO2 (configuration not stated),-0.8,1,-9,1.8%,-18,5,10%
CC1(O)CCC2C3CCC4=CC(=O)CCC4=C3C=CC21C (configuration not stated),2.5,·,1,-3.6%,3,0,·
N=C1c2ccccc2CN1CC(=O)c1ccccc1,-4.1,-5,-20,1.1%,-9,-11,10%
CCOP(=O)(OCC)C(NC(=O)C(Cl)Cl)C(Cl)(Cl)Cl (configuration not stated),-2.0,-5,7,1.1%,9,1,11%
C=C1C(=O)OC2CC(C)C3C=CC(=O)C3(C)C(O)C12 (configuration not stated),-10,·,0,-5.3%,-29,20,·
CCOC(=O)c1c(-n2c(C)cc(/C=C3/C(=O)NC(=O)N(CC)C3=O)c2C)sc2c1CCCC2,-4.7,·,2,-2.0%,-14,1,·
C=COCCn1c(C)c(C(=O)OCC)c2cc(O)ccc21,-3.7,5,-7,-0.3%,-11,-1,8%
Cc1cc(C)c2c(c1)-c1cc(C)nn1C(c1cccnc1)N2 (configuration not stated),-2.0,-1,0,-0.3%,-5,-4,2%
O=c1c2ccccc2nc(-c2ccco2)n1-c1ccccc1,-1.0,1,5,-0.2%,-15,-5,6%
Brc1ccc(C2N3CCCN23)cc1 (configuration not stated),1.7,4,0,0.0%,2,2,20%
O=C(Cn1c(NCCCl)nc2ccccc21)c1ccc(Br)cc1,2.5,·,·,1.8%,-11,4,·
CCCCn1c(O)c(C(C)=NCCCN(C)C)c(=O)[nH]c1=O,-0.8,12,-6,1.4%,-8,10,?
CCOC(=O)c1ccc(N=C(CC)c2c(O)n(C)c(=O)n(C)c2=O)cc1,-6.4,6,12,0.5%,-9,15,9%
O=c1[nH]c(=O)n(CC2CCCO2)c(O)c1/C=C1\C=Nc2ccccc21 (configuration not stated),-0.1&-1.4,?,-22&-10,2.4%&0.9%,-8&-12,1&3,-20%&-21%
CCOP(=O)(Cc1cc(C#N)oc1C)OCC,-2.1,3,-2,-1.1%,-11,6,14%
C#C[C@@]1(O)CCC2C3CCC4=C/C(=N/OCC(=O)NC(C(=O)O)C(C)O)CC[C@]4(C)C3CC[C@@]21C (some centres not stated),-0.3,-2,5,6.8%,-8,-1,14%
COC(=O)C1=C(c2ccc3ccccc3c2)C[C@@H]2CC[C@H]1N2C(=O)NC1Cc2ccccc2C1,-1.0,-4,·,3.2%,-19,-6,·
CCN1/C(=C/C=C/C2=[N+](CC)c3ccccc3C2(C)C)C(C)(C)c2ccccc21,-4.7,·,?,-1.9%,-50,?,·
CCC(CC)N1CCN(Cc2nc3ccccc3c(=O)n2-c2ccc(F)cc2)CC1,-4.1,-4,3,5.0%,-1,1,-5%
C[N+]1(C)CCc2cc3c(cc2[C@H]1[C@@H]1OC(=O)c2c1ccc1c2OCO1)OCO3,-3.0&-3.6,8&6,2&-9,1.3%&0.9%,2&-5,0&4,16%&21%
O=S(=O)(F)c1ccc2nc(-c3cccc(Sc4ccccc4)c3)cc(Cl)c2c1,-5.4,1,5,3.6%,-5,1,3%
COc1cc(C(C)=O)ccc1OC(=O)N(C)c1ccccc1,-0.6,-11,·,0.8%,-23,11,11%
CCCC1CCCCC12C(=O)NC(=O)NC2=O (configuration not stated),-5.3,·,6,5.6%,-17,1,·
CNC(=O)Nc1ccc(C(=O)N/N=C\C23CC[C@@H](O)CC2(O)CC[C@@H]2[C@@H]3CCC3(C)C(C4=CC(=O)OC4)CCC23O)cc1 (some centres not stated),-1.1,·,5,-0.9%,2,11,17%
NC1=Nc2ccccc2Oc2ccccc21,1.0,·,0,?,-19,3,7%
CCCCCCC(Cl)(Cn1ccnc1)c1ccccc1 (configuration not stated),-0.5,·,1,0.6%,-1,-11,·
COc1ccc(-c2cc(=NCC(=O)O)c3ccccc3o2)cc1,-3.2,-4,·,0.1%,-8,-18,0%
CCOP(=O)(/C=C(\Cl)c1ccccc1)C(O)c1ccc(F)cc1 (configuration not stated),0.1,18,·,1.5%,-13,-1,12%
CCN(CC)c1ccc(CN(C)CCc2ccc(OC)c(OC)c2)cc1,-2.1,0,-24,5.5%[38.3 µM],-20,-26,-7%
O=C1CCN(C(=O)CNC(=O)Cc2ccccc2)CC1,-1.4,10,0,1.3%,1,8,17%
O=C(Cn1cnc2sc3c(c2c1=O)CCCC3)NCCC(=O)N1CCC2(CC1)OCCO2,-1.3,9,-2,-5.6%[38.3 µM],1,3,13%
